# Source: PubChem (National Center for Advancing Translational Sciences (NCATS))
# D2 ag: activates the human D2 dopamine receptor; AID 624465; DiscoveRx PathHunter D2 beta-arrestin, luminescence, 90 min; 100% = 57 uM dopamine signal; activation, % (test concentration not listed); 360,000 compounds, 0.084% hits; P14416; in the data active = activation above about 40%; inconclusive = about 15% to 40%; inactive = below about 15%; note: compound concentration not given in the record; the text of the record calls up to 30% inactive
# Target sequence (P14416 whole entry, looked up): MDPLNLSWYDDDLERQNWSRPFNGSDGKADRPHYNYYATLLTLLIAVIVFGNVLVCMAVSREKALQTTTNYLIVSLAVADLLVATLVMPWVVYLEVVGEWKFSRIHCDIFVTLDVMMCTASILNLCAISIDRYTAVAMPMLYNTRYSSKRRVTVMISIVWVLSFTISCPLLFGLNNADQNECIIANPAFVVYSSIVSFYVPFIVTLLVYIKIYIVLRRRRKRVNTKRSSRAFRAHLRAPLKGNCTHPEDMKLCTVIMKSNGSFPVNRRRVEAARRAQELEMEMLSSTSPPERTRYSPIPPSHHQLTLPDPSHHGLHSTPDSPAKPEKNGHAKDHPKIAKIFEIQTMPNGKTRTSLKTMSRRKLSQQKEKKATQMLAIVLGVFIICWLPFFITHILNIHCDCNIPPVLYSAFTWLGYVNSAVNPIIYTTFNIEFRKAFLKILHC
#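 DiscoveRx PathHunter D2 beta-arrestin cells (2,100/well) attached overnight, then compound-stimulated 90 min at 37 C in HBSS/10 mM HEPES/0.1% Tween-20 buffer; beta-galactosidase complementation read by luminescence after 1 h at ambient temperature. Dopamine 57 uM final (EC100) as control.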
# Sfp PPTase inh: Sfp phosphopantetheinyl transferase inhibition; Q9F4F7; Biochemical Sfp PPTase activity, qHTS; Potency, µM, for the others: max response, negative = inhibition, most hits filed as inhibitors; 310,000 compounds, 3.5% hits; AID 1490; active = well fitted inhibition curve with a large enough effect; inconclusive = small, poorly fitted or top-dose-only effect, or another doubt; inactive = no such curve, though single readings can be large or run the other way;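 note: the enzyme is Sfp with the accession as filed and its product quenches rhodamine fluorescence; potency is the fitted concentration of half-maximal effect; 0% = enzyme reaction without inhibitor and -100% = no enzyme wells; top concentration of the series not given in the record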
#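 Sfp 15 nM + cpd, 15 min RT; start w/ rhodamine-CoA 5 uM, BHQ-2-YbbR 12.5 uM (final); 50 mM Hepes pH 7.6, 10 mM MgCl2, 0.01% NP-40, 0.01% BSA; read 525/598 nm at 0 and 30 min.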
# gsp antag: gsp mutant antagonism; Potency, µM (top dose mostly 76.9 µM), without a hit: top-dose activity change, negative = inhibition, hits mostly inhibitors; 340,000 compounds, 0.4% hits; AID 624288; gsp-mutant cells, cAMP HTRF, 30 min; control for the full effect not named in the record; active = falling curve of any shape with a large fitted effect; inconclusive = falling curve, mostly with a smaller effect; inactive = flat or rising curve; cell line not stated here;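 note: intracellular cAMP measured with PDE inhibitor Ro 20-1724 present during compound exposure; potency is the fitted concentration of half-maximal effect; % is set by controls: 0 for no effect and ±100 for the full control effect; nearly all actives have a fitted effect of over 65% in size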
#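 Cells, 2000/well, grown 16–24 h in DMEM 10% FBS with 0.5 mg/ml G418, then compounds plus […] (300 uM addition stock), 30 min at 37C. cAMP read by HTRF (cAMP-d2 and anti-cAMP antibody-K in lysis buffer) after 30 min RT.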
# Menin MLL FP FL: menin-MLL binding inhibition, fluorescein peptide | 290,000 tested, under 10 active | AID 1766 | Fluorescence polarization, fluorescein-MLL peptide displacement from menin | FP activity change, % at 61.4 µM; inconclusive = falling polarisation curve, or a change in total fluorescence; inactive = total fluorescence flat and polarisation flat or rising; no compound was filed as active; the % refers to the polarisation; negative = inhibition;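 note: % of control where 0% means no effect; inhibitors lower the polarisation; unlabelled MLL peptide was the positive control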
# PINK1 expr mod: PINK1 expression modulation. PINK1 immunofluorescence, high-content cytometry, 24 h. Potency, µM (titrated, usually from 76.6 µM), without a hit: top-dose activation (PINK1 increase), usual class: activators. 410,000 compounds, 0.2% hits; active = well fitted activation curve with a large enough effect; inconclusive = small, poorly fitted or top-dose-only effect; inactive = flat fitted curve, though single readings scatter; cell line not stated here;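 note: potency is the fitted concentration of half-maximal effect; % of control where 0% means no effect; nearly all actives have a fitted effect of over 65% in size; a mitochondrial uncoupler was the plate control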
#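 Fluorescence from anti-PINK1 antibody, together with nuclear and cell stains, was scanned on a laser-scanning cytometer. Before staining, stable-line cells were incubated 24 hours with compounds at 5 concentrations; primary antibody 12 h at 10 degrees C.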
# ClpP mod: qHTS Assay for Activators of ClpP; purified B. subtilis ClpP, FRET peptide cleavage, 20 min; Potency, µM (top dose mostly 57.5 µM), for the others: top-dose activity change, negative = active; 340,000 compounds, 1.9% hits; AID 651965, 2013; active = well fitted falling curve with a large enough effect; inconclusive = small, poorly fitted or top-dose-only effect; inactive = no such curve, though single readings can be large or run the other way; note: potency is the fitted concentration of half-maximal effect; the source files actives as falling curves though it sought activators and does not explain the sign; nearly all actives have a fitted effect of over 65% in size; many hits overshoot -100%
# Target sequence (P80244 whole entry, looked up): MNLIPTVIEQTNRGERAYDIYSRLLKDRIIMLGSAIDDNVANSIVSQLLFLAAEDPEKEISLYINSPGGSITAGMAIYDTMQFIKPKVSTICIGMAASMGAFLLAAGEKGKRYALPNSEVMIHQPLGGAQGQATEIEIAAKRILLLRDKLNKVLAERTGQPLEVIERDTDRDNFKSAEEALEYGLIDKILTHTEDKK
#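 Purified B. subtilis ClpP, 10 microg/mL final in Tris/HCl pH8 with KCl, BSA, glycerol and Tween-20, cleaved an Abz/nitrotyrosine-quenched decapeptide. Fluorescence (ex 320, em 430) was read at 0 and 20 min at room temperature. Delta was normalized to 5.8 microM ADEP and DMSO/no-enzyme controls.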
# gsp agonist: gsp mutant agonism; AID 624287; gsp mutant cells, cAMP HTRF, 30 min; control for the full effect not named in the record; Potency, µM (series often up to 76.9 µM), inactives show top-dose activation (cAMP increase), hits mostly activators; 340,000 compounds, 0.13% hits; active = well fitted activation curve with a large enough effect; inconclusive = small, poorly fitted or top-dose-only effect, or another doubt; inactive = no such curve, though single readings can be large or run the other way; cell line not stated here;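 note: phosphodiesterase inhibitor Ro 20-1724 added with compounds to block cAMP breakdown; potency is the fitted concentration of half-maximal effect; nearly all actives have a fitted effect of over 60% in size; about a fifth of the inactives were tested at one dose only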
#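 Cells in DMEM/10% FBS with G418 were pretreated with compounds in DMSO plus […] (300 uM stock) for 30 min at 37C. cAMP was measured by HTRF (cAMP-d2 plus anti-cAMP antibody-K) after 30 min at room temperature.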
# * hit, by the source's call; ? = inconclusive; / = not tested or not shown; & = joins results of further samples; [ ] = another dose, or the depositor's remark.
SMILES,D2 ag,Sfp PPTase inh,gsp antag,Menin MLL FP FL,PINK1 expr mod,ClpP mod,gsp agonist
Cc1ccc(N(Cc2ccccc2)C(=O)c2ccc(Cl)c(S(=O)(=O)N3CCOCC3)c2)cc1,-4.6,/,-6%,/,0.4%,1.4%,-13%
CC(=O)Nc1ccc(S(=O)(=O)N2CCN(c3cnn(C)c(=O)c3Cl)CC2)cc1,-1.2,15%,5%,2.1,-1.5%,/,0%[15.4 µM]
O=c1cc(CN2CCN(c3ccccc3F)CC2)c2ccccc2o1,-3.8,/,/,/,1.6%,-5.8%,/
CCOC(=O)CSc1nnc(-c2ccco2)n1C,-1.2,-9%,-2%,6.6,1.5%[38.3 µM],0.3%,18%
O=C(O)C1CC=CCC1C(=O)NCCc1ccccc1 (centres undefined),-2.0,17%,4%,5.0,-2.6%,-0.6%,-4%
CCc1nnc(NC(=O)CCC(=O)NC2CCCC2)s1,1.3,8%,-22%,/,-0.8%,0.3%,18%
Cc1cc(C)c(C(=O)CSc2nc(C)cc(C)c2C(N)=O)c(C)c1,-3.7,8%,-8%,6.9,9.1%,-2.0%,-7%[15.4 µM]
CN(C)c1ccc(C2C3=C(CCCC3=O)OC3=C2C(=O)CCC3)cc1,4.5,-16%,-1%,4.1,-1.9%,-0.9%,?
Cc1cc(C)c(C)c(S(=O)(=O)N2CCC(C(=O)N3CC(C)CC(C)C3)CC2)c1C (centres undefined),-8.6,/,?,/,5.3%,-11%,6%
COc1ccc(NC(=S)N(Cc2cccc(Br)c2)CC2CCC(C(=O)O)CC2)cc1 (centres undefined),0.2,17%,?,1.2,-0.3%,/,29%
CC1=C(C(=O)N(C(C)C)C(C)C)CC(CC(=O)NC2CCCC2)C(=O)N1Cc1ccccc1 (centres undefined),-4.0,/,/,/,2.1%,-2.8%,25%
COc1ccc(-c2nc3ccccc3c(=O)n2NC(=S)N(C)C)cc1,-4.5,18µM*,3%,1.7,0.7%,-1.3%,9%
O=C(Cc1ccccc1)NCC(=O)N1CCc2ccccc2C1,0.9,9%,8%,4.0,-0.2%,/,-6%[15.4 µM]
O=C(COc1ccc2c(c1)C(=O)CC1(CCCCC1)O2)NCc1ccccc1,-5.7,3%,-12%,3.7,-0.8%,-17%,0%
CCc1ccc(-c2ccc(C(=O)O)c(C)n2)cc1,1.2,33%,-8%,5.7,0.5%,-0.4%,0%[15.4 µM]
CCOc1ccccc1N1CCN(C(=O)CNC(=O)c2sc3ccccc3c2Cl)CC1,0.5,10%,?,3.4,-0.4%,/,13%
Cc1cccc(C(=O)NCCN2CCCC2)c1,-3.2,8%,5%,-0.2,0.0%,-0.1%,-44%[inhibitor]
CCOC(=O)CCNC(=O)Nc1ccc2nc(C)n(Cc3ccccc3Cl)c(=O)c2c1,-3.1,-6%,2%,-0.5,9.1%[38.3 µM],?,-45%[inhibitor]
OCCC1CN(Cc2ccc(F)cc2)CCN1CCCc1ccccc1 (centres undefined),-1.2,11%,-22%,-9.7,-1.2%,0.7%,?
CCOC(=O)c1cc2occc2n1CC(=O)Nc1ccc(OC)cc1OC,0.6,-11%,7%,5.2,0.4%[38.3 µM],-2.0%,-51%[inhibitor]
Cc1cc(C)cc(Cn2ncc(Cl)c(Cl)c2=O)c1,-6.8,14%,-3%,/,-5.0%,-1.5%,18%
COc1ccc(NC(=O)N(C2CCCCC2)C2CCN(C(C)C)CC2)c(OC)c1,1.0,-26%,5%,-3.5,2.0%,-0.3%,?
COCCCN1C(=O)C(O)=C(C(C)=O)C1c1cccc(F)c1 (centres undefined),-4.2,-14%,1%,1.7,2.6%,-4.6%,13%
CN1C(=O)SC(Nc2ccccc2)C1=O (centres undefined),-2.6,13%,8%,0.7,0.7%,-2.4%,6%
COc1ccc(NCc2nn(CC(=O)c3ccc(Br)cc3)c3[n+]2CCCCC3)cc1,-1.2,-23%,10%,0.3,0.3%,0.2%,7%[15.4 µM]
COc1ccc(C(=O)NCc2cc(C)nc3ccccc23)cc1,-3.1,2%,3%,-1.5,5.3%,-3.2%,-36%[inhibitor]
O=C(c1cc2cc(Cl)ccc2oc1=O)N1CCN(c2ccccn2)CC1,-1.2,13%,12%,-1.3,0.5%,-0.2%,22%
CCOC(=O)NC(=O)COC(=O)CCCc1nc2ccccc2s1,-2.3,17%,10%,-1.6,3.0%,/,26%[15.4 µM]
O=C(COC(=O)c1ccc(F)cc1F)Nc1ccc2[nH]c(=O)[nH]c2c1,-0.6,9%,7%,4.6,6.7%,/,-17%
COc1cccc(/C=C2\SC(=S)N(CCC(=O)NNC(=O)c3ccccc3OC)C2=O)c1,-2.0,5%,-14%,3.0,9.7%,/,0%[15.4 µM]
O=S(=O)(c1ccc(=S)[nH]c1)N1CCCCCC1,-3.0,/,10%,/,2.3%,1.1%,-12%
FC(F)(F)c1cc(-c2ccco2)nc(NCc2ccccc2)n1,-1.8,20µM*,6%,12,4.8%,?,-25%
COc1ccc2oc(C(=O)Nc3cccc(S(=O)(=O)N4CCOCC4)c3)c(C)c2c1,1.0,/,-9%,/,0.6%,-2.0%,1%[15.4 µM]
C[N+](C)(CCCCCC[N+](C)(C)CCCN1C(=O)c2cccc3cccc(c23)C1=O)CCCN1C(=O)c2cccc3cccc(c23)C1=O,-5.0,/,-4%,9.1,1.0%,4.1%,/
Cc1ccc(C2=Nc3ccccc3N=C(c3ccco3)C2)c(O)c1,1.0,-3%,?,2.8,14%,0.9%,?
CSc1ccccc1C(=O)N1CCc2ccc(NC(=O)c3ccccn3)cc2C1,1.0,/,/,/,-0.6%,0.8%,-11%
CCc1cc2c3c(c(=O)oc2cc1OC(C)C(=O)O)CCCC3 (centres undefined),-3.0,30%,-11%,-0.4,1.4%,4.4%,8%
CCC(=O)Nc1cc(C)c(OC)c(C)c1,1.1,17%,8%,-5.9,3.6%,/,-1%[15.4 µM]
COc1cc(C2CC(=O)NC(SCC(=O)Nc3ccccc3C)=C2C#N)ccc1O (centres undefined),-2.3,4%,-2%,2.3,-1.4%,-7.8%,18%
COc1ccc(C(=O)NNC(=O)c2cc(C)nc3ccccc23)cc1,2.9,/,18%,/,0.9%,-1.4%,-46%[inhibitor]
COc1ccc(S(=O)(=O)N(CC(=O)N/N=C/c2ccccc2C(=O)O)c2ccccc2OC)cc1,-3.1,24%,-2%,-0.7,-0.1%,-1.8%,35%
Cc1ccc(-c2nc(N)sc2CC(=O)OCC(=O)N2C(C)CCCC2C)cc1 (centres undefined),-1.9,18µM*,-11%,12,-0.9%,0.6%,-4%[15.4 µM]
Cc1ccc2nc(N3CCN(C)CC3)c(C=O)c(=O)n2c1,-3.6,6%,12%,?,-0.1%,-12%,-2%[15.4 µM]
O=S(=O)(NC1=NCCCCC1)c1cc(F)ccc1F,-5.2,/,8%,/,-0.3%,/,?
O=C(Nc1cccc(NC(=O)c2cccs2)c1)c1ccco1,-2.2,10%,-11%,1.8,1.0%,-0.2%,-31%[inhibitor]
COC(=O)c1sccc1NC(=O)C12CC3CC(CC(C3)C1)C2,-0.2,/,?,/,8.4%,-4.4%,-25%
Cc1ccc2sc(NC(=O)CSc3nc(C)cc(C)c3C#N)nc2c1,0.8,5%,12%,1.6,?,?,?
O=C1Nc2ccccc2N=C(c2ccc3c(c2)OCO3)C1N(C(=O)c1ccc2ccccc2c1)C1CC1 (centres undefined),-4.3,/,/,/,-0.4%,-16%,/
CN(C)c1ccc(C2/C(=C(/O)c3ccc(Br)cc3)C(=O)C(=O)N2C)cc1 (centres undefined),1.5,-2%,2%,-2.6,1.4%,-0.6%,-3%
CCN(Cc1cc2cccc(C)c2[nH]c1=O)C(=O)c1ccccc1OC,-3.0,4%,3%,1.7,1.3%,?,18%
CCc1ccccc1NC(=O)CN1CCN(CC(=O)Nc2cc(C)ccc2OC)CC1,0.4,12%,3%,?,-1.4%,/,-24%
CC(C)C[C@H]1CN=C(N(C)C)N1CCc1cccc(F)c1,-3.4,/,6%,/,-0.3%,0.1%,0%
COc1cc(/C=N/NC(=O)C(=O)N2CCCC2)ccc1O,3.8,18%,-25%,5.2,/,0.8%,15%
CCn1c(SCC(=O)Nc2ccc(NC(=O)c3ccco3)c(OC)c2)nc2ccccc2c1=O,-3.4,-7%,6%,0.1,22%[38.3 µM],28µM*,8%
O=c1cc(N2CCN(Cc3ccccc3)CC2)[nH]c(=O)n1-c1cccc(C(F)(F)F)c1,0.8,10%,0%,-0.4,-0.6%[38.3 µM],-3.8%,-2%
CCOc1ccc(-n2c(SCC(N)=O)nc3c([nH]c4ccccc43)c2=O)cc1,7.3,6%,-9%,2.0,2.1%,-10%,3%
CCCc1ccc(C(=O)NNC(=O)c2ccc(Br)cc2)cc1,-3.0,-2%,13%,8.7,-0.2%,1.7%,-54%[inhibitor]
O=C(CCC1CCCC1)NCCS(=O)(=O)N1CCN(c2ccccc2)CC1,-4.3,/,5%,/,0.5%,-1.7%,?
COCCNC(=O)C1(C)CCN(C(=O)C2(c3ccc(Cl)cc3)CCCC2)C1 (centres undefined),-1.2,/,/,/,2.5%,0.5%,/
COc1ccc2c(c1)CCc1c(C(=O)NCc3cccnc3)noc1-2,-0.9,-7%,-13%,0.0,9.9%,-11%,-102%[inhibitor]

# Other results.
SMILES,D2 ag,Sfp PPTase inh,gsp antag,Menin MLL FP FL,PINK1 expr mod,ClpP mod,gsp agonist
Nc1ccc(S(=O)(=O)O)cn1,-5.2&1.1&-6.5,9%&-3%&9%,9%&7%&9%,0.3&5.8&-5.3,1.9%&2.2%&-1.2%,-9.4%,33%
CC1CCCN(C(=O)C2CCN(S(=O)(=O)c3cccs3)CC2)C1 (centres undefined),-2.5,/,1%,/,-0.6%,0.1%,15%[15.4 µM]
COC(=O)C1=C(C(=O)OC)[C@@H]2N(C)c3ccccc3[C@@]23C[C@@H](C(=O)OC)N=C3N1,-0.1,4%&11%,-14%,3.5[11.7 µM],1.1%,-0.3%,/
Cn1c(N)c(N2CCN(c3ccccc3)CC2)c(=O)[nH]c1=O,-2.0,12%,2%,-0.1,-1.6%,/,6%
Cc1c(C(=O)OCc2nc3scc(-c4ccccc4)c3c(=O)[nH]2)cccc1[N+](=O)[O-],-4.8,-21%,1%,5.2,-0.9%,-1.9%,-3%[15.4 µM]

# No enrichment for hits. Share with any hit: about 5.1%.
